Compound activity deposited in PubChem BioAssay by several laboratories.
Beta2AR agonist: activates human beta-2 adrenergic receptor causing internalization | response, % (test concentration not listed) | Am2.2-beta2AR cells, FAP receptor internalization, flow cytometry; reference of the scale not given here | P07550 | 0.43% of 340,000 active;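 active = response above a set limit, near 3 SD of response in nonfluorescent compounds, cut at about 42% in these data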;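 note: stock transfer was 100 nL into about 11 µL; a reference agonist was the positive control; negative values mostly stem from fluorescent compounds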
E coli growth: inhibitors of Escherichia coli growth | OD600, 23 h; hits give low values | OD600 absorbance (concentration not given with the values) | 0.21% of 330,000 active | AID 1053175;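 active = OD600 absorbance below the run mean of sample wells minus 3.6 SD, in any replicate, cut at about 0.56 in these data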;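 note: stock transfer was 300 nL into about 60 µL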
Vif A3G: HIV-1 Vif–A3G interaction blockers – biochemical, TR-FRET, GST-Vif 1-94, biotin-A3G peptide, dose response retest, primary screen (AID 1117319); 0.57% of 260,000 active; inhibition, %, or IC50 in µM where a hit was titrated; TR-FRET GST-Vif / biotin-A3G peptide binding; higher % means a stronger effect; test concentration not given here; strong numbers were not always called active;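 active = above the screen mean plus three standard deviations and confirmed in dose response; inconclusive = results disagree or hit not tested in dose response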;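 note: Vif residues 1-94 fused to GST binding biotinylated APOBEC3G peptide 110-148; 0% = full assay without inhibitor and 100% = GST in place of GST-Vif; retest series ran down from 100 µM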
Bfl-1 A1 inh: inhibitors of the anti-apoptotic protein A1, read as caspase activation; MEF A1-2A-BIM cells, Caspase-Glo 3/7 luminescence, 3 h; percent of clofoctol response, vehicle zero; caspase activation, % (no concentration beside the values); 0.066% of 330,000 active;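 active = over half of replicate activation scores above 10%, or exactly half above 10 with the replicate mean above 10; inconclusive = replicate mean below 10 yet half the replicates above 10; inactive = over half of replicates below 10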;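 note: wells of about 30 µL received 50 nL stock; many hits fall short of the cut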
HNF4A DNA FP: change in binding of human HNF4 alpha to DNA; activity change, % at 10 µM; HNF4a-FITC DNA binding, fluorescence polarization, 1 h; 0.3% of 360,000 active; in the data active = activity change above about 30%, passing the limit was not always enough;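 note: controls were the assay level and a saturating level of protein; the project sought stronger binding though the title names inhibitors; some compounds called inactive have numbers as strong as hits; positive values seem to mean higher polarization but the record does not say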
Target sequence (P41235 whole entry, looked up): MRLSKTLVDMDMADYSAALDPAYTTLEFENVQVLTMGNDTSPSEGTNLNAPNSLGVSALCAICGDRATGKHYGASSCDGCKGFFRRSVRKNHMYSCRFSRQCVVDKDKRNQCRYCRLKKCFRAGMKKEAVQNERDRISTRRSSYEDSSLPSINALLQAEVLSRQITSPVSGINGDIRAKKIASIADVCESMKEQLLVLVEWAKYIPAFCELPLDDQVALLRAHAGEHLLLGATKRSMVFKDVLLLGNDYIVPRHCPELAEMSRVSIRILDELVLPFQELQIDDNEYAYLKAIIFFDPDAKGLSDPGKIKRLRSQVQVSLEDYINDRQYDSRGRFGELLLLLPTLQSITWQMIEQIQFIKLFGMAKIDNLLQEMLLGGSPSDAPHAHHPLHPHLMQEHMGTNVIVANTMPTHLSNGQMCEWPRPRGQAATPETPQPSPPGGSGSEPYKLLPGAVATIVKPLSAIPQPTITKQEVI
LANA-H2B inh: blocks KSHV LANA binding to histone H2A/H2B | 0.6% of 320,000 active | AID 2629 | Q9QR71 | cell-free LANA-H2A/H2B peptide, fluorescence polarization | inhibition, % (concentration not given with the values); in the data active = inhibition mostly above about 10%, no sharp cut-off; inactive = mostly below about 6.7%;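 note: stock transfer was 7.5 nL into about 10 µL; 0% = median of vehicle wells and 100% = median of positive control wells; one replicate is shown; the record names a cut of 25% in any replicate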
UCH37 DUB inh: blocks the human deubiquitinase UCH37. 0.33% of 330,000 active. AID 588478. purified proteasome/UCH37, Ub-AMC cleavage fluorescence. inhibition, % (no concentration beside the values);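 active = mean of two replicates above 20%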;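 note: 0% = compound-free wells with enzyme and 100% = wells lacking proteasome; stock transfer was 100 nL into about 20 µL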
Target sequence (Q9Y5K5 whole entry, looked up): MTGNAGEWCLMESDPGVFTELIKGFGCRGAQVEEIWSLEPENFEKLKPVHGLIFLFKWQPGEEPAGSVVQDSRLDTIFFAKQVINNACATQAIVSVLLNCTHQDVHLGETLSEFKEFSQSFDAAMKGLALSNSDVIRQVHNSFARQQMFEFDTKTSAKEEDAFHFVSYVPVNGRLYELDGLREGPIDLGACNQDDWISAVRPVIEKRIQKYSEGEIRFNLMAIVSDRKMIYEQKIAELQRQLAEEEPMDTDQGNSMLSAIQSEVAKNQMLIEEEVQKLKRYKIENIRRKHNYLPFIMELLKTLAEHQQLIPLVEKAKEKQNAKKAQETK
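system = Proteasome-associated human UCH37 deubiquitinase | amount = 0.15 nM proteasome as dispensed | medium = pH 7.4 Tris-HCl (50 mM) with ovalbumin, ATP-MgCl2, DTT | incubation = 30 min preincubation with enzyme, 25 min cleavage at room temperature | detection = AMC fluorescence 355/460 nm | read-out basis = percent inhibition | controls = no-proteasome and no-compound wells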
* marks the source's active call; other numbers are inactive results; ? = inconclusive; . = not tested or not shown; & = joins results of further samples.

structure	Beta2AR agonist	E coli growth	Vif A3G	Bfl-1 A1 inh	HNF4A DNA FP	LANA-H2B inh	UCH37 DUB inh
Cc1csc(C(C)N(C)C(=O)c2ccc(OC3CCN(Cc4ccccn4)CC3)cc2)n1 (stereo not given)	-7.5	0.718	8.0%	1.7	-3.7	3.2	-0.5
COc1ccc(C2CC(C(F)(F)F)n3nc(C(=O)NCc4c(C)nn(C)c4C)c(Cl)c3N2)cc1 (stereo not given)	0.7	0.708	72.8%	-0.7	8.7	-3.6	-1.2
O=C(CSCc1ccccc1)NCCc1ccc(F)cc1	6.4	0.732	.	0.6	1.4	-2.0	4.7
CC(=O)Nc1cccc(NC(=O)CCNC(=O)c2ccccc2)c1	-9.2	0.691	.	-0.3	1.9	0.5	3.3
CC1CCN(S(=O)(=O)c2ccc3c(c2)N(CC(=O)NCCCN2CCCC(C)C2)C(=O)CO3)CC1 (stereo not given)	-10.6	0.707	2.1%	-0.8	-1.6	-1.8	4.7
CCCN(CCC)CCCNC(=O)CC(C(=O)N1CCc2ccccc21)n1ccnc1 (stereo not given)	-11.6	0.726	-4.6%	-0.3	0.3	-6.0	2.9
O=C(NC1CCCCCCC1)c1cc(-c2ccccn2)nc2ccccc12	-9.6	0.749	-12.2%	0.2	0.4	-2.4	-7.5
O=C(NCc1ccncc1)c1c(F)c(F)c(F)c(F)c1F	2.8	0.694	-1.6%	0.0	1.5	-0.4	2.6
CCN1CCN(c2ccc(S(=O)(=O)N3CCCCC3)cc2NC(=O)c2ccc([N+](=O)[O-])o2)CC1	1.6	0.628	5.1%	0.4	0.6	-3.2	5.7
COC(=O)c1ccc(CSc2nc3ccccc3c(=O)n2N)cc1	9.8	0.676	-5.5%	?	1.7	2.5	-15.0
CC(C1CC1)N(Cc1ccccc1)C(=S)Nc1ccccc1 (stereo not given)	10.7	0.746	-6.1%	0.4	2.3	-1.7	1.7
Cc1nnc(NC(=O)C2CCN(C(=O)c3ccco3)CC2)s1	1.2	0.673	4.8%	1.2	1.0	-1.8	0.9
CCN(CC)CCN=CC1=C(O)CNC1=O	1.1	0.728	>100µM*	1.6	2.2	0.9	1.5
COC(=O)c1ccc(N/C=C/C(=O)c2ccccc2)cc1	-2.5	0.649	1.6%	0.5	1.3	7.0	-2.1
COc1cccc(C2=NCCc3cc4c(cc32)OCO4)c1OC	6.1	0.694	-0.2%	0.7	-1.0	1.2	-1.1
CCN(CC)C(=O)[C@H]1C[C@H](CC(=O)NCCc2ccccn2)C(=O)N2CCc3c([nH]c4cc(CCC(=O)N(C)C)ccc34)[C@]12C	-9.6	0.7	17.5%	.	0.3	.	-1.0
COC(=O)c1sc(S(=O)(=O)NCc2ccccc2)c(C(=O)OC)c1C	12.6	0.677	0.7%	-0.2	2.0	-11.7	1.7
CCNC(=O)/C(=C\c1ccccc1)NC(=O)/C=C/c1ccccc1	1.4	0.672	-3.2%	1.1	0.7	-5.3	6.1
COC(=O)c1ccc(CSc2nnc3c(Cl)cc(Cl)cn23)o1	3.3	0.669	0.8%	-0.8	0.1	0.5	-0.1
CNC(=O)c1cccc2cccc(Sc3ccccc3C(=O)O)c12	-4.1	0.672	-2.1%	0.3	-1.3	6.0	0.9
Cc1ccc2oc(C(=O)NCC(c3ccco3)N(C)C)c(C)c2c1 (stereo not given)	6.1	0.658	.	-0.1	2.4	-8.6	0.3
Cc1ccnc2c1ccc1cccnc12	-7.5	0.371*	-1.7%	.	0.7	.	1.7
Cc1ccc(-c2nn(CC(=O)N(C)C)c(=O)c3ccccc23)cc1S(=O)(=O)N(C)C	11.7	0.701	-5.4%	0.3	0.1	0.5	1.3
O=C(C1CCCCC1)N1CCC(O)(c2ccc(Cl)cc2)CC1	-6.2	0.689	-0.3%	0.8	1.6	0.6	1.9
N#C/C(=C\c1ccc(-c2ccccc2Cl)o1)C(=O)Nc1nc2ccccc2s1	-0.6	0.735	21.4%	0.5	-7.2	6.9	9.6
COC(=O)c1ccccc1NS(=O)(=O)c1ccc(Cl)nc1	-1.6	0.714	-2.4%	0.4	-0.9	-1.8	-0.3
O=C(CN1C(=O)S/C(=C\c2ccc(O)cc2)C1=O)c1ccccc1	25.2	.	13.2%	0.7	13.1	0.9	2.6
c1ccc(CCNc2ncnc3ccccc23)cc1	-3.6	0.662	-11.1%	-2.1	-1.4	-0.3	-0.4
O=C(O)CC1(CC(=O)Nc2ccccc2C(=O)c2ccccc2)CCCC1	0.0	0.643	.	-0.1	0.4	-4.0	3.4
O=C(CNC(=O)c1ccc(Br)cc1)NCCc1nc2ccccc2[nH]1	-8.8	0.748	3.3%	.	4.2	.	-1.8
O=C(NC1CC1)c1ccc(-c2ccccc2)cc1	2.7	0.676	-7.1%	-0.7	1.8	1.2	1.6
Cc1ccccc1NC(=O)CSc1nc2ccccc2o1	-9.1	0.72	10.1%	0.5	0.6	-1.1	4.9
COc1ccc(N2CCN(C(=O)COC(=O)[C@@H](NC(=O)OCc3ccccc3)C(C)C)CC2)cc1	5.7	0.657	.	.	-1.3	.	1.5
COc1cc(OC)c(C2C(C(=O)Nc3ccc(C)cc3C)=C(C)Nc3ncnn32)cc1OC (stereo not given)	-0.6	0.707	-0.5%&-5.6%	-0.1	5.0	-6.9	3.4
COc1cccc(NC(=O)CN(C)C(=O)c2cccc(S(=O)(=O)Nc3ccc(C)cc3)c2)c1	-2.8	0.69	-3.0%	0.2	0.9	-0.1	1.8
Cc1ccc(C(=O)NCCc2nnc3ccc(NCCCN4CCOCC4)nn23)cc1	2.0	0.645	6.4%	-0.3	1.3	-2.5	-2.8
Fc1cccc(F)c1-n1c(CN2CCCCC2)csc1=S	5.9	0.746	5.8%	-0.3	0.2	3.2	4.2
CCc1cc2c(NC(Cc3c[nH]c4ccccc34)C(=O)O)nc(C)nc2s1 (stereo not given)	11.5	0.7	?	-0.7	-0.4	0.6	-6.4
COc1cc2c(cc1OC)C(C(=O)NC(C)c1ccccc1)CC(=O)N2 (stereo not given)	1.6	0.681	.	-0.4	-2.3	-1.3	-0.6
CC1(C)CC(=O)C(CC(=O)N2CCC(Cc3ccccc3)CC2)C(=O)C1	2.1	0.724	1.9%	0.3	-0.7	-0.9	0.0
CCOC(=O)c1ccc(NS(=O)(=O)c2cnc[nH]2)cc1	-3.7	0.694	16.4%	0.5	0.7	1.1	0.8
Cc1ccsc1C(=O)C1CCCN(Cc2cc(F)ccc2-n2cccn2)C1 (stereo not given)	28.8	0.694	-6.3%	0.2	0.3	-3.1	2.3
CC(CC(=O)Nc1cccnc1)c1ccccc1 (stereo not given)	5.1	0.71	0.6%	0.4	6.4	-2.1	-1.5
O=C(O)c1ccccc1C=NN1CCCCCC1	-1.4	0.73	-2.9%	.	2.4	.	4.9
Cc1cccc(NC(=O)COC(=O)c2ccc(C)c(S(=O)(=O)N3CCCCC3)c2)c1	-4.0	0.666	5.5%	0.7	-1.5	-2.1	3.0
COc1ccc(Nc2nc(N)c(C(=O)c3ccc(OC)cc3)s2)cc1	12.2	0.679	-5.8%	-0.3	0.0	-3.1	-3.1
O=C1CC(C(=O)N2CCN(c3ccccc3O)CC2)CN1Cc1ccccc1 (stereo not given)	-12.5	0.681	-0.1%	0.4	-1.0	2.6	3.4
O=C(Nc1ccc(F)cc1)c1ccc2c(=O)n3c(nc2c1)CCCCC3	-8.7	0.744	-5.1%	1.5	0.0	-7.7	7.7
Cc1ccc(NC(=S)N(C)C)cc1C	-4.9	0.692	-16.4%	0.4	-0.3	-1.4	2.2
CCN(C(=O)c1cc(S(=O)(=O)N2CCCC2)ccc1C)C1CCS(=O)(=O)C1 (stereo not given)	-1.3	0.698	0.6%	0.3	-4.9	-4.4	2.4
CC(=O)OCCSc1c(-c2ccccc2)c2cc(Cl)ccc2[nH]c1=O	-1.1	0.728	.	-0.8	-4.0	3.9	5.1
CCOc1ccc(CCNc2nc3c(c(=O)n(C)c(=O)n3C)n2CC)cc1OCC	11.9	0.669	-1.5%	-0.5	-1.2	2.2	0.7
O=C(COC(=O)Cc1ccccc1F)NCCNC(=O)COC(=O)Cc1ccccc1F	-2.6	0.674	3.7%	-0.3	-0.7	-1.7	0.3
Cc1ccc(Sc2nc3ccc(C)cn3c(=O)c2/C=N/O)cc1	-2.9	.	.	-0.9	-1.2	-4.4	.
COc1ccc(CNC(=O)CN(CC2CCCO2)C(=O)CNS(=O)(=O)c2ccc(C)cc2)cc1 (stereo not given)	0.3	0.722	82.1%&-5.6%	-0.7	-0.6	-3.2	0.4
CCCn1c(N2CCN(CC(=O)c3c[nH]c4ccccc34)CC2)nc2c1c(=O)[nH]c(=O)n2C	-1.9	0.719	7.3%	-0.1	0.7	0.7	1.2
CCC(=O)N1CCc2cc(S(=O)(=O)NC(C(=O)NCc3ccccc3)C(C)C)ccc21 (stereo not given)	-7.5	0.721	?	0.6	-0.8	3.3	2.6
CO/N=C/C(C#N)=C/c1ccc(OC)c(OC)c1	6.1	.	3.2%	1.7	1.4	-0.5	.
CN(Cc1ccc(Cl)cc1)C(=O)c1ccccc1SCC(=O)N1CCCC1	-5.4	0.634	0.3%	.	-3.6	.	1.6
Cn1cccc1C(=O)NC(=O)COC(=O)CNC(=O)CNC(=O)c1ccc(Cl)cc1Cl	9.5	0.7	31.2%	-0.5	2.4	1.2	-2.5

Next part.
structure	Beta2AR agonist	E coli growth	Vif A3G	Bfl-1 A1 inh	HNF4A DNA FP	LANA-H2B inh	UCH37 DUB inh
COc1cc2c(cc1OC)CN(C(=O)c1cccc(S(=O)(=O)N(C)C)c1)CC2	2.9	0.693	-7.0%	0.3	-0.2	-3.2	-0.3
Cc1nc(Nc2ccc(Br)cc2Br)c([N+](=O)[O-])c(=O)[nH]1	2.6	0.688	.	-0.2	-2.1	-0.9	6.1
COCCN1CC(C(=O)NCCc2nc(C)c(C)s2)CCC1=O (stereo not given)	11.9	0.648	2.3%	-0.1	1.0	-3.8	4.2
COc1ccc(-c2nc3ccc(Cl)cn3c2NC2CCCCC2)cc1SC1CCCCC1	-9.5	0.735	.	.	6.2	.	-56.8
CCCCN(C)C(=O)c1cc2c(s1)-c1ccccc1S(=O)(=O)C2	-8.3	0.695	-0.3%	-0.1	6.3	4.0	4.9
COc1cc(NC(=O)CSCC(=O)Nc2cccc(C(F)(F)F)c2)c(Cl)cc1Cl	-2.4	0.65	15.2%	-1.0	0.4	-5.5	7.7
COc1cccc(C(C(=O)NCC2CCCO2)N(C(=O)Cn2nnc3ccccc32)c2ccc(NC(C)=O)cc2)c1 (stereo not given)	-0.2	0.711	.	1.2	-2.8	5.1	0.5
COC(=O)c1ccc(NC(=O)CNC(=O)C2CCCCC2)c(C)c1	0.5	0.73	-1.8%	1.8	5.7	0.8	-0.2
O=C(c1cc(-c2ccccc2)n[nH]1)N1CCc2c([nH]c3ccccc23)C1c1ccccn1 (stereo not given)	10.5	0.702	-0.6%	1.3	-1.6	-2.8	1.7
Cn1nnnc1SCc1ccccc1[N+](=O)[O-]	-1.6	0.692	-5.0%	0.4	3.0	-0.9	5.4
OCC[C@@H]1C[C@@H](O)[C@H](O)[C@@]2(CCCc3ccccc3O2)O1	-0.8	0.787	.	0.0	3.6	-4.1	0.0
Cc1nn2c3c(cnc2c1-c1ccccc1)C(=O)CCC3	-5.8	0.712	-4.4%	-0.2	-1.6	0.9	3.1
C/C(=N/NC(=O)CNS(=O)(=O)c1ccccc1)c1ccc(Br)cc1	-11.7	.	0.2%	0.6	-2.5	-2.4	.
